# Mtb growth: Mycobacterium tuberculosis H37Rv growth inhibition, cell based, confirmatory dose response (AID 1949); inhibition, % at 10 µg/mL; hits with a dose series show IC50 in µg/mL; most inactive calls were filed without a number and no value below 0 was filed; 100,000 tested, 1.6% active;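 active means confirmed in a dose series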;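 further: bacteria grown 7 days with compound before Alamar blue readout; 0% = untreated bacteria and 100% = reference antibiotic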
# * hit, by the source's call; i = inactive. The list is partial; count on the stated rates, not on these rows.
structure	Mtb growth
CN(C)S(=O)(=O)N1CCN(S(=O)(=O)c2ccc3ccccc3c2)CC1	i
COc1ccc(S(=O)(=O)Nc2ccccc2C(=O)NC2CCCCC2)cc1Br	3.5%
NC(=O)C1(N2CCCCC2)CCN(C(=O)CSc2nc3ccccc3[nH]2)CC1	1.7%
CCC(=O)NC(=S)Nc1cccc(NC(=O)CC)c1	i
Cc1ccc(OCC(=O)Nc2ccc(-c3nc4ccccc4s3)cc2)c(C)c1	i
O=C(NCc1cccs1)c1cccc(F)c1	i
O=C(Nc1ccccc1C(=O)NCc1ccccc1)c1cc(F)c(F)cc1Cl	7.2%
O=C(c1ccco1)N1CCN(C(=O)C23CC4CC(CC(C4)C2)C3)CC1	i
COc1ccc(Br)cc1C(=O)Nc1ccc(-c2nc3ccccc3s2)cc1C	i
CC(C)(C)NC(=O)C1CC(=O)OC1(C)C (centres undefined)	1.3%
Cc1ccc(S(=O)(=O)N(CC(O)CN2CCCCC2)c2ccccc2)cc1 (centres undefined)	i
C=C(C)c1cccc(C(C)(C)NC(=O)N2CCCC2)c1	i
CCC(=O)Oc1ccc(C(=O)Nc2ccccc2NC(C)=O)cc1	1.1%
Cc1cnc(NC(=O)CSc2nnc(COc3ccc(C(C)C)cc3)o2)s1	i
CCOc1ccc(NC(=O)Nc2ccc3c(c2)nnn3C)cc1	i
CCOC(=O)c1c(C)[nH]c(C(C)=O)c1C	i
O=C(C1=C(O)C(=O)N(CCCn2ccnc2)C1c1ccccc1)c1cccs1 (centres undefined)	i
c1ccc(CN=C(Nc2ccccc2)Nc2ccccc2)cc1	i
CCC(=O)c1ccc(OC(=O)c2cc3cc(Br)cc(OC)c3oc2=O)cc1	10.8%
CCOc1ccc(NC(=O)C2CC(=O)NC(N3CCCCC3)=N2)cc1 (centres undefined)	i
CC1(C(=O)NC2CCN(Cc3ccccc3)CC2)CC1(Cl)Cl (centres undefined)	i
O=C1c2ccccc2C(=O)N1Cc1ccc(S(=O)(=O)NCCOc2ccc(F)cc2)cc1	i
CCCNC(=O)c1cc(-c2ccc(C)o2)nc2ccccc12	i
CC(C)(C)Nc1nc(N2CCCC2)nc(N2CCCC2)n1	i
Cc1ccccc1OCc1nnc(SCc2ccc(Br)cc2)n1C	1.4%
C=CCn1c(SCC(=O)Nc2nc3ccccc3s2)nc(O)cc1=O	i
N#Cc1ccccc1NC(=O)c1cccc(COc2ccc(Cl)cc2Cl)c1	3.1%
COC(=O)c1ccsc1NC(=O)CSc1nnnn1Cc1ccccc1	i
O=C(Nc1sc2c(c1C(=O)N1CCOCC1)CCCCC2)c1ccncc1	i
Cc1ccc(N/C(N)=N/c2nc3c(c(=O)[nH]2)CCC3)cc1Cl	i
CC1CCCC(C)N1C(=O)CSc1nnc(CCc2ccccc2)n1-c1ccc(Cl)cc1 (centres undefined)	0.5%
CC1=C(C)CC(C(=O)NCCc2ccccc2)C(C(=O)O)C1 (centres undefined)	i
CCOc1ccc(N2C(=O)CC(n3nc(C)cc3C)C2=O)cc1 (centres undefined)	i
CCOc1ccccc1C(=O)Nc1ccc(-c2nnc(-c3ccc(C)cc3)o2)cc1	i
Cc1cccc(C(=O)NC(c2nnc(SCC(=O)Nc3ccc(C(C)C)cc3)n2C)C(C)C)c1 (centres undefined)	2.8%
O=C(CN1CCCCCC1)Nc1sc2c(c1C(=O)Nc1ccccc1Cl)CCC2	i
Cc1c(Cl)cccc1NC(=O)Cn1cc(C(=O)C2CC2)c2ccccc21	i
CCOc1ccc(-c2nn3c(COc4ccccc4)nnc3s2)cc1	i
COc1c(C)cc(Br)cc1C(=O)Nc1ccc2oc(-c3ccncc3)nc2c1	i
Cc1cc(S(N)(=O)=O)ccc1NC(=O)C(C)c1ccccc1 (centres undefined)	i
Cc1ccccc1OCCOc1cccc(C=O)c1	6.79µg/mL*
O=C1C(=O)N(CN2CCN(Cc3ccc4c(c3)OCO4)CC2)c2ccccc21	i
Cn1nccc1C(=O)Nc1ccc(Cl)cc1Cl	i
CCCCc1cc(=O)oc2cc(C)cc(OCC(=O)c3ccc(C)cc3)c12	i
O=C(NC1=NCCS1)c1cccc(NC(=O)c2ccco2)c1	1.0%
O=C(CNS(=O)(=O)c1ccccc1)N1CCCC1	i
C/C=C/COc1nc2c(c(=O)n(C)c(=O)n2C)n1C	i
COc1ccc(OC)c(NC(=O)c2ccc(NC(C)=O)cc2)c1	i
COc1ccc(S(=O)(=O)Nc2cc([N+](=O)[O-])ccc2C)cc1C	1.0%
Cc1cc(NC(=O)c2ccc(F)cc2)c(C)cc1I	i

# Carrying on.
structure	Mtb growth
COc1ccccc1C(CCN(Cc1ccc(F)cc1)C(C)=O)c1ccco1 (centres undefined)	i
O=C(c1ccccc1NS(=O)(=O)c1ccc([N+](=O)[O-])cc1)N1CCCC1	i
O=C1CC(c2ccccc2)Sc2nc(-c3ccc([N+](=O)[O-])cc3)nn21 (centres undefined)	i
O=C(Oc1ccc(Cl)cc1)c1cccs1	i
CCOCCCNC(=O)c1ccc2c(c1)OCO2	i
COc1ccc(N(CC(=O)Nc2cccc(F)c2)S(=O)(=O)c2ccccc2)cc1OC	i
O=C(CC12CC3CC(CC(C3)C1)C2)NC(=S)Nc1ccc(-c2nc3ccccc3[nH]2)cc1	1.46µg/mL*
C#CCN1C(=O)C(O)(CC(=O)c2ccc(I)cc2)c2ccccc21 (centres undefined)	i
CCN(CC)CCN1C(=O)CCCc2sc3c(c21)CCCC3	5.4%
CC(=O)c1cccc(NC(=O)NCc2cc(C)n(C)n2)c1	i
Cc1cc(=O)oc2cc(NC(=S)N3CCc4ccccc4C3)ccc12	i
Cc1ccc(NC(=O)COc2ccccc2C(=O)NCCc2ccccc2)c(C)c1	2.1%
COc1ccc(C(=O)NCc2nnc(SCC(=O)Nc3ccc(Br)cc3C)n2-c2ccccc2)cc1	i
Cc1cc(NC(=O)c2ccc(I)cc2)no1	i
Cc1oc2c(c1-c1ccccc1)c(=O)oc1ccccc12	i
Cc1cccc(OCC(=O)NC(=S)Nc2sc3c(c2C#N)CCCC3)c1C	i
O=C(Nc1ccc(Cl)cc1C(=O)Nc1ccc(F)cc1)c1cccc([N+](=O)[O-])c1	i
O=[N+]([O-])c1ccc(-c2nnc3ccccn23)cc1	i
N#Cc1nc(COc2ccccc2)oc1N1CCN(c2cccc(Cl)c2)CC1	1.5%
COC(=O)c1ccc(C(=O)OC)c(NC(=O)c2ccccc2N(C)S(C)(=O)=O)c1	i
COc1ccccc1C(=O)Oc1cc2c3c(c1)C(C)=CC(C)(C)N3C(=O)C2=O	i
NC(=O)C1(N2CCCCC2)CCN(C(=S)Nc2ccc(Nc3ccccc3)cc2)CC1	9.0%
Cc1ccccc1CNC(=O)CCc1ccccc1	i
O=C(Nc1ccccc1)C(=O)NC1CCCCCCCCCCC1	0.2%
O=C(Nc1ccncc1)c1ccc(Cl)s1	i
COc1ccc2cc(Br)ccc2c1CO	2.8%
COC(=O)c1ccc(COc2nc(C)cc(C)c2C#N)o1	i
O=S(=O)(Nc1ccc(Br)cc1F)c1cccc(F)c1	i
CCOC(=O)N1CCN(C(=O)COc2cc(Cl)c(Cl)cc2Cl)CC1	1.1%
CCOC(=O)c1ccc(NC(=S)N2CCN(S(=O)(=O)c3ccc(Cl)cc3)CC2)cc1	i
O=C(Nc1ccc(O)cc1C(=O)O)c1ccco1	1.3%
COC(=O)c1ccccc1NC(=O)c1cc(-c2ccccc2)on1	i
COC(=O)CCn1nc(-c2ccc(C)cc2)c2ccccc2c1=O	i
CCOC(=O)NCC(C)NC(=O)OCC (centres undefined)	i
CCCOc1ccc(NS(=O)(=O)c2ccc(F)cc2)cc1	i
O=C(O)c1cc(CN2CCOCC2)oc1-c1ccccc1	i
O=C(Nc1ccc(OCc2ccccc2)cc1)C1CCN(C(=O)Cc2ccccc2)CC1	i
CCc1ccccc1NC(=O)CN(c1cccc(Cl)c1)S(=O)(=O)c1ccc(Cl)cc1	3.5%
CC(NC(=O)c1ccccc1NC(=O)c1ccc(Cl)c(S(=O)(=O)N2CCOCC2)c1)c1ccccc1 (centres undefined)	3.6%
COc1ccc(OC)c(S(=O)(=O)Nc2cc(Cl)ccc2C)c1	i
N/C(=N/c1nc(CSc2ccc(Cl)cc2)cc(=O)[nH]1)Nc1ccc(F)cc1	5.4%
COc1ccc(C)cc1NC(=O)CC(O)(C(F)(F)F)C(F)(F)F	5.7%
CCOC(=O)c1ccc(NC(=O)COc2ccc(S(=O)(=O)NCC(C)C)cc2Cl)cc1	i
Cc1ccc(C(=O)Nc2ccc(Br)c(C)n2)c(Cl)c1	i
O=C(Nc1ccc(F)cc1)c1nc[nH]c1C(=O)Nc1ccccc1[N+](=O)[O-]	i
CCOC(=O)c1c(NC(=O)Cc2cccs2)sc(C(=O)N2CCCCC2)c1C	i
Cc1ccc(C(=O)C(OC(=O)c2c(C)cc(=O)oc2C)c2ccccc2)cc1 (centres undefined)	i
Cc1ccc(C)c(NC(=O)COc2ccc(Br)cc2C)c1	i
COc1ccc(CSc2nnc(SCc3ccc(Br)cc3)s2)cc1	13.5%
CC(=O)Nc1cccc(-c2nnc(SCC(=O)Nc3ccc(Cl)cc3Cl)n2C)c1	i

# Later entries:
structure	Mtb growth
COc1ccccc1NC(=O)CSCc1nc2ccccc2c(=O)n1-c1ccccc1Cl	i
COc1ccc(N2CCN(C(=O)CN(Cc3ccc(F)cc3)S(=O)(=O)c3ccccc3)CC2)cc1	i
COc1ccc(NC(=O)c2cccc(NC(=O)C(C)C)c2)c([N+](=O)[O-])c1	i
CCOc1cccc2cc(C(=O)N3c4ccc(F)cc4CCC3C)c(=O)oc12 (centres undefined)	i
COc1ccc(CNC(=O)C(=O)NC2CC2)cc1	i
CN(c1ccc(C(=O)Nc2cccc(Cl)c2)cc1)S(=O)(=O)c1ccccc1	i
CCCCCC(=O)Nc1ccc2oc(-c3cncc(Br)c3)nc2c1	i
CC1=C(C(=O)Nc2ccccc2C)C(c2ccc(N(C)C)cc2)N2C(=O)CSC2=N1 (centres undefined)	i
C=CCn1c(SCC(=O)c2ccc(Br)cc2)nnc1C(C)NC(=O)c1ccccc1 (centres undefined)	i
NC(N)=N/N=C/c1ccc(OS(=O)(=O)c2ccccc2)cc1	3.4%
Cc1cc2ncn(CCOc3ccc(Cl)cc3)c2cc1C	1.12µg/mL*
O=C(OCc1ccc2ccccc2c1)c1ccco1	i
Cc1ccc(C(=O)NCc2cccc(CNC(=O)c3ccc(C)o3)c2)o1	1.2%
COc1ccc(OCC(O)CN2CCN(c3ccccn3)CC2)cc1 (centres undefined)	i
O=C(Nc1cnn(C23CC4CC(CC(C4)C2)C3)c1)c1cc(-c2ccccc2)on1	i
O=C(NCCc1ccccc1)c1ccc(NC(=O)C2COc3ccccc3O2)cc1 (centres undefined)	17.3%
COc1ccc(CCNC(=O)CN(Cc2ccccc2)S(=O)(=O)c2ccc(F)cc2)cc1OC	0.3%
O=C(N1CCCC1)N1CCN(S(=O)(=O)c2ccccc2)CC1	i
Cc1ccc(SCCCCSc2ncccn2)cc1	5.2%
Cc1ccc(NC(=S)NC(=O)c2cccnc2)c(Br)c1	i
Cn1c2c(c(=O)n(C)c1=O)C(c1ccc(Cl)cc1)C1=C(N2)c2ccccc2C1=O (centres undefined)	i
O=C(c1ccc2c(c1)OCO2)N1CCCN(C(=O)c2ccc3c(c2)OCO3)CC1	i
N#Cc1ccc(NC(=O)CCCc2ccccc2)cc1	i
CCn1c2ccccc2c2cc(C#N)ccc21	2.8%
COc1ccccc1C(=O)NNC(=S)NC(=O)C(c1ccccc1)c1ccccc1	i
Cc1cccc(-c2cc(C(=O)NC(C)C)c3ccccc3n2)c1	i
CCc1ccc(-c2csc3ncn(CC(=O)N4CCCCC4)c(=O)c23)cc1	4.1%
Cc1cc(Br)c(NC(=O)CSc2nnc(-c3ccccc3)o2)cc1C	2.2%
CCn1c(SCC(=O)Nc2ccc(NC(C)=O)cc2)nnc1-c1ccc(C)c(Cl)c1	2.3%
COc1ccc(C(=O)Nc2cccc(C(C)=O)c2)cc1I	i
O=C(O)C1NCCc2ccccc21 (centres undefined)	i
COc1cccc(C(=O)Nc2ccc3c(C)cc(=O)oc3c2)c1	i
CS(=O)(=O)N(CC(=O)N1CCCCCC1)c1ccc(F)cc1	i
CCOc1ccc(S(=O)(=O)N2CCN=C2c2ccccc2)cc1	2.8%
Cc1ccc(S(=O)(=O)N(C)CC(=O)NCc2ccco2)cc1	i
Cc1nnc(SCC(=O)N2c3ccccc3CC2C)s1 (centres undefined)	i
CCC(=O)Oc1ccc(C(=O)Nc2ccc(O)cc2C(=O)O)cc1	2.1%
Cn1c(SCC(N)=O)nnc1-c1sc2ccccc2c1Cl	i
Cc1c(C(=O)Nc2nc(-c3ccc(Br)cc3)cs2)cccc1[N+](=O)[O-]	i
CCOc1cc(C2CC(=O)Nc3c2ccc2ccccc32)cc(Cl)c1O (centres undefined)	1.1%

# Screens as filed in PubChem BioAssay.
